Screening data deposited in PubChem BioAssay by Center for Chemical Genomics, University of Michigan.
TAR Tat displ – HIV-1 TAR-Tat binding disruption; 0.6% of 100,000 active; AID 1259389; z-score (test concentration not listed); HIV-1 TAR RNA, Tat peptide displacement FRET; hits give high values;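 further: score is relative to mean and SD of negative controls; some compounds called inactive have numbers as strong as hits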
CDC25B CDK2 inh – human CDC25B-CDK2/CyclinA binding inhibition; z-score (no concentration beside the values); 0.72% of 94,000 active; HTRF CDC25B-CDK2/CyclinA binding, anti-His/anti-Flag; hits give high values; P30305+P24941;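 further: score is relative to mean and SD of negative controls; strong numbers were not always called active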
Numbers without * were called inactive; nt = no result given.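 How the source made its calls: active means z-score from 3 up in half or more of its runs; inactive means the rest.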 An unsorted share of the library. Share with any hit: about 0.97%.

SMILES | TAR Tat displ | CDC25B CDK2 inh
CCOC(=O)c1c(N2CCCC2=O)c2cc(OC)ccc2n1C | 1.38 | -1.15
CCc1cccc(C)c1NS(=O)(=O)c1ccc(-c2cnc(C)o2)cc1 | 0.36 | nt
O=S(=O)(c1ccc(Br)cc1)N1CCCC(c2nc(-c3ccc(Cl)cc3)no2)C1 (stereo not drawn) | 0.68 | nt
CCOc1ccc(-c2nc(CNS(=O)(=O)CC)c(C)o2)cc1 | 0.56 | nt
O=C(c1cccc(NC2=NC3CS(=O)(=O)CC3S2)c1)N(Cc1ccccc1)Cc1ccccc1 (stereo not drawn) | nt | -1.53
CS(=NC(=O)c1cccc2nonc12)c1ncccc1C(F)(F)F (stereo not drawn) | nt | -0.72
CC(C)Cc1nc2sc3c(NCCCO)ncnc3c2c2c1COC(C)(C)C2 | nt | -0.7
Cc1oc2cc(OCC(=O)O)ccc2c(=O)c1-c1ccc(Br)cc1 | 0.37 | 0.13
Cc1csc2nc(CSc3nc(-c4ccco4)nc4cc(=O)[nH]n34)cc(=O)n12 | 1.37 | nt
CC(C)(C)c1cc(NC(=O)C(Cl)Cl)c(C(N)=O)s1 | nt | -1.61
O=S1(=O)C[C@H](NCc2ccc(F)cc2)[C@@H](S(=O)(=O)c2cccs2)C1 | 0.06 | 0.01
CCOC(=O)C(NC(C)=O)(Nc1ccc(C)cc1)C(F)(F)F (stereo not drawn) | nt | -1.27
O=S(=O)(c1cccc2nsnc12)N1CCN(C/C=C/c2ccccc2)CC1 | 0.08 | -1.61
CN1CCN(c2cc(NCCO)c3c4c(onc24)-c2ccccc2C3=O)CC1 | 8.99* | 0.56
OCCN1CCN(CC#CCC(c2ccccc2)c2ccccc2)CC1 | -0.45 | 6.32
CC1CCN(S(=O)(=O)N2CCCC(C(=O)NCCCOC(C)C)C2)CC1 (stereo not drawn) | 2.17 | nt
NC(=O)c1c(NC(=O)CCCS(=O)(=O)c2ccc(F)cc2)sc2c1CCC2 | 0.08 | nt
COc1ccc(-c2noc(-c3nnn(-c4ccc(F)cc4)c3N)n2)cc1 | -0.61 | nt
COC(=O)c1ccccc1OC(=O)c1sc2ccccc2c1Cl | -1.16 | -0.32
COc1ccc(C2C(C(=O)OC3CCCCC3)=C(C)NC3=C2C(=O)CCC3)c(OC)c1 (stereo not drawn) | 2.29 | -1.56

Five consecutive records out of the list so far, for reference:
SMILES | TAR Tat displ | CDC25B CDK2 inh
O=S1(=O)C[C@H](NCc2ccc(F)cc2)[C@@H](S(=O)(=O)c2cccs2)C1 | 0.06 | 0.01
CCOC(=O)C(NC(C)=O)(Nc1ccc(C)cc1)C(F)(F)F (stereo not drawn) | nt | -1.27
O=S(=O)(c1cccc2nsnc12)N1CCN(C/C=C/c2ccccc2)CC1 | 0.08 | -1.61
CN1CCN(c2cc(NCCO)c3c4c(onc24)-c2ccccc2C3=O)CC1 | 8.99* | 0.56
OCCN1CCN(CC#CCC(c2ccccc2)c2ccccc2)CC1 | -0.45 | 6.32

Further entries.
SMILES | TAR Tat displ | CDC25B CDK2 inh
CCN(Cc1ccc(F)cc1)Cc1cc(=O)c2cc(Cl)ccc2[nH]1 | -0.64 | nt
CCN(CC)CCSc1nc2c(=O)n(C)c(=O)n(C)c2n1C | 0.59 | nt
CCCNC(=O)Nc1ccc2nc3n(c(=O)c2c1)CCCC3 | 1.41 | nt
O=C1CCCC2=C1C(c1cccc(Cl)c1)n1c(nc3ccccc31)N2 (stereo not drawn) | nt | -4.75
Cc1noc(C)c1S(=O)(=O)N1CCC(C(=O)NC2CCC(C)CC2)CC1 (stereo not drawn) | 2.2 | nt
CCCn1nc(NS(=O)(=O)c2ccc(C)cc2)c2cc3cc(C)ccc3nc21 | 0.74 | 0.99
O=C(Nc1nc(-c2cccs2)ns1)c1ccco1 | 2.14 | 0.09
CN(C)/C=C(\C#N)c1ccccn1 | nt | -1.17
O=C(O)c1cnn(-c2ccccc2Cl)c1C1CCNCC1 | 0.95 | 0.12
CCOc1ccc(NC(=O)N2CCn3cccc3C2C(C)C)cc1 (stereo not drawn) | -0.06 | nt
CCCN(c1nc(C)c(Cl)c(OC)n1)S(=O)(=O)c1ccc(C)cc1 | nt | -0.79
COc1ccc(OC)c(NS(=O)(=O)c2ccc3c(c2)CCC(=O)N3)c1 | nt | -0.2
Cc1c(-c2nsc(NC(=O)c3ccco3)n2)nnn1-c1cccc(F)c1 | 2.62 | -1.37
CC(C)c1cc(C(=O)Nc2ccc(F)cc2)nn1C1CCS(=O)(=O)C1 (stereo not drawn) | -0.24 | -1.02
CN(C)CCCN1C(=O)c2oc3ccc(F)cc3c(=O)c2C1c1cccc(Cl)c1 (stereo not drawn) | 1.6 | nt
CC(=O)OC1=CC(=O)CC(c2ccc(Cl)cc2)C1 (stereo not drawn) | nt | -0.95
CC(C)(C)c1cc(-c2nc3ccccc3[nH]2)n[nH]1 | nt | -2.31
COc1ccc(C/C(C)=N/NC(N)=O)cc1OC | nt | -3.14
CC(C)CCOc1ccc(Oc2nc(N(C)C)nc(N(C)C)n2)nn1 | -0.02 | -2.41
O=c1cc2nc(-c3ccco3)nc(SCc3cc(=O)n4nc(C5CCCCC5)sc4n3)n2[nH]1 | 3.34* | nt
CCCc1cc(=O)n2nc(N(C)CC(=O)NC(C)CC)sc2n1 (stereo not drawn) | 0.99 | -0.38
CC(C)(C)c1ccc(C(=O)CCCN2CCC(OC(c3ccccc3)c3ccccc3)CC2)cc1 | nt | 0.73
Cc1nn2c(=O)cc(COc3ccc(Cl)cc3C)nc2s1 | -0.39 | -0.34
O=C(CCc1nnc2ccc(NCc3ccco3)nn12)N1CCc2ccccc2C1 | -0.02 | nt
O=C(NCCCN1CCCC1=O)C1CCN(c2nn3c(=O)c4c(nc3s2)CCCC4)CC1 | 2.32 | nt
Cc1nc(C(F)(F)F)ccc1C(=O)N1CCSCC1 | nt | -1.33
O=C(C1Cc2ccccc2N1C(=O)c1ccccc1)N1CCN(Cc2ccc3c(c2)OCO3)CC1 (stereo not drawn) | 2 | nt
COC(=O)c1ccc2c(=O)n3nc(Nc4cc(F)ccc4F)sc3nc2c1 | -1.03 | nt
CCCNC(=O)c1cc(CC(C)C)on1 | 0.36 | -2.96
COc1cccc(/C=C2/SC(=S)N(CCc3ccccc3)C2=O)c1O | nt | -1.31
CCNS(=O)(=O)c1cc(-c2nnc(OC)c3ccccc23)ccc1C | -1.03 | -1.48
Cc1ccc(SC(CC(=O)c2ccc(C)cc2)C(=O)O)cc1 (stereo not drawn) | nt | -2.96
N/C(=N\OC(=O)Nc1cccc(Cl)c1)c1ccc2nonc2c1 | nt | -0.51
COc1cccc(-c2nc3c(c(=O)[nH]2)Cc2cc(Br)cc(OC)c2O3)c1 | 1.03 | -0.47
CN(CC1COc2ccccc2O1)C(=O)Cn1cnc(S(=O)(=O)N2CCCC2)c1 (stereo not drawn) | 0.65 | nt
O=C(NCCCN1CCOCC1)c1noc2c1CSc1ccccc1-2 | 0.52 | -0.01
O=c1c(NCc2cccs2)c(-c2ccc3c(c2)CCCC3)c1=O | -1.03 | nt
CC(C)(C)OC(=O)/C(C#N)=C/C1CCCCC1 | nt | -2.5
COC(=O)c1cc(=O)nc2scc(C)n12 | 2.4 | nt
O=C1C(Oc2ccccc2)C(c2ccc3c(c2)OCO3)N1Cc1ccc2c(c1)OCO2 (stereo not drawn) | 1.37 | -0.99
CN(c1ccccc1)S(=O)(=O)c1ccc(NC(=O)c2nn(-c3cccc(Cl)c3)ccc2=O)cc1 | -0.09 | -0.17
CN1C(C(=O)NCc2ccccn2)=CC(c2ccc3c(c2)OCO3)=NS1(=O)=O | 2.4 | -1.07
O=C(Cn1c(=O)oc2cc(Cl)ccc21)N1CCN(c2ncccn2)CC1 | 0.44 | nt
FC(F)(F)c1cc(-c2nsc(N3CCOCC3)n2)cc(C(F)(F)F)c1 | nt | -1.87
COc1ccc(OC)c(-c2noc(Nc3cc(Cl)ccc3OC)n2)c1 | 1.02 | nt
CCOC(=O)c1ccc2c(c1)NC(=O)C(N1CCN(c3ccc(OC)cc3)CC1)S2 (stereo not drawn) | nt | -1.87
O=C(c1ccc(Cl)cc1)C(O)c1c[nH]c2ccccc12 (stereo not drawn) | nt | 2.53
CCNc1nc(Nc2ccc(C)c(Cl)c2)c2cnn(C)c2n1 | 2.29 | nt
Cn1cc(S(=O)(=O)N2CCOCC2)cc1C(=O)Nc1ccc(F)c(Cl)c1 | 0.35 | nt
CCc1ccc(N2CC34C=CC(O3)C(C(=O)OC(C)C)C4C2=O)cc1 (stereo not drawn) | 0.5 | 0.42
Continued:
SMILES | TAR Tat displ | CDC25B CDK2 inh
Cc1cc(=O)[nH]c(-c2ccncc2)n1 | nt | -3.32
Cc1nn(-c2nc3ccccc3o2)c2c1C(c1ccccc1F)CC(=O)N2 (stereo not drawn) | 0.68 | nt
COc1ccc(N2CCN(c3c4c(nc5nncn35)CCC4)CC2)cc1 | 0.16 | -1.81
CCOC(=O)Cn1c(C2CC(=O)N(c3cccc(SC)c3)C2)nc2ccccc21 (stereo not drawn) | 0.01 | -0.12
CN1CCN(C(=O)c2ccc(-c3ccsc3)cc2)C(c2ccccc2)C1 (stereo not drawn) | 1.36 | nt
CCOCCCNc1ncc2c(n1)CC(c1ccco1)CC2=O (stereo not drawn) | nt | -0.75
CCc1ccc(NS(=O)(=O)c2ccc3c(c2)S(=O)(=O)N=CN3)cc1 | -0.47 | nt
Cc1ccc(Nc2ncnc3sc(C)c(C)c23)cc1 | 0.15 | -0.08
O=C1NC(=S)NC(=O)C1=C/C=C/c1c(O)[nH]c(=S)[nH]c1=O | nt | -2.53
Cn1ncc2c(Nc3ccccc3)nc(N3CCOCC3)nc21 | 0.72 | nt
CCC(C)NC(=O)C1=Cc2cc(Br)ccc2OC1 (stereo not drawn) | 1.21 | nt
COCCNc1oc(-c2ccccc2)nc1S(=O)(=O)c1ccc(Br)cc1 | 0.66 | nt
CC(C)C(NC(=O)c1noc2c1CCc1sccc1-2)c1cccs1 (stereo not drawn) | 0.55 | nt
Cc1cc(-c2ccc(S(=O)(=O)Nc3cccc4c3CCCC4)s2)on1 | 0.62 | nt
CCC1CCCCN1C(=O)CCS(=O)(=O)c1cc2c(cc1C)NC(=O)CO2 (stereo not drawn) | 1.76 | nt
Cc1ccc2c(Cl)c(C(=O)N3CCN(c4ncccn4)CC3)sc2c1 | nt | -0.3
CCOC(=O)c1noc2nc(C)nc(N(C)c3ccccc3Cl)c12 | -0.51 | nt
Cc1ccc(-c2noc(-c3cccnc3NCc3ccco3)n2)cc1 | 0.94 | 0.74
CC1=C(c2cccc(Cl)c2)S(=O)(=O)N=C1N1CCN(c2ccccc2)CC1 | 0.93 | -2.59
Cc1ccc(Cn2c(=O)c3nc(C(=O)O)nn3c3ccc(C)cc32)cc1 | 1.63 | -0.06

Complete entries, looked up by structure. Order of values: TAR Tat displ | CDC25B CDK2 inh
`COCCNc1oc(-c2ccccc2)nc1S(=O)(=O)c1ccc(Br)cc1` is listed with 0.66 | nt
`CCC1CCCCN1C(=O)CCS(=O)(=O)c1cc2c(cc1C)NC(=O)CO2` (stereo not drawn) is listed with 1.76 | nt
`Cc1ccc2c(Cl)c(C(=O)N3CCN(c4ncccn4)CC3)sc2c1` is listed with nt | -0.3

Looked up above:
`CCCN(c1nc(C)c(Cl)c(OC)n1)S(=O)(=O)c1ccc(C)cc1` – CDC25B CDK2 inh: -0.79
`COC(=O)c1cc(=O)nc2scc(C)n12` – TAR Tat displ: 2.4
`CN(C)/C=C(\C#N)c1ccccn1` – CDC25B CDK2 inh: -1.17
`CCOc1ccc(NC(=O)N2CCn3cccc3C2C(C)C)cc1` (stereo not drawn) – TAR Tat displ: -0.06

Continued:
SMILES | TAR Tat displ | CDC25B CDK2 inh
Cc1ccc(-c2nc(-c3ccc(C)s3)no2)c(C)c1 | 0.52 | nt
CC1CCCCN1CCNc1ccc2nnc(-c3ccc(F)cc3)n2n1 (stereo not drawn) | 1.06 | -1.8
CCc1nn(CC(=O)O)c(=O)c2cc3ccccc3n12 | 0.42 | -0.39
CN(CC(=O)NCCC1=CCCCC1)S(=O)(=O)c1ccc2c(c1)CCCC(=O)N2 | 1.32 | nt
c1ccc(-c2nnc3ccc(N4CCC5(CC4)OCCO5)nn23)cc1 | nt | -0.64
O=C(NCc1ccco1)c1c(NC(=O)c2nn(-c3ccc(F)cc3)ccc2=O)sc2c1CCCC2 | 0.22 | -1.51
Cc1cc(C)nc(SCc2nc3cccc(C)n3c2Br)n1 | nt | -0.11
O=C(NCc1ccco1)C1Sc2nnc(-c3ccccc3)n2NC1c1ccc(F)cc1 (stereo not drawn) | -0.58 | -2.78
Cn1c(SCc2cc(=O)c3cc(F)ccc3[nH]2)nnc1-c1ccccc1 | 0.19 | nt
N#CCSc1ccc(F)cc1 | nt | -0.84
Cc1noc(C)c1S(=O)(=O)N1CCN(C2c3ccccc3-c3ccccc32)CC1 | nt | -1.2
Cc1ccc(C)c(Cn2ncn3c(cc4cc(C)ccc43)c2=O)c1 | 1.41 | -2.85
Cc1ccccc1NS(=O)(=O)c1c(C)noc1C | 0.69 | -1.29
O=C(Nc1nnc(S(=O)(=O)N2CCc3ccccc32)s1)c1cccc(F)c1 | 1.33 | -2.6
Cn1ncc(S(=O)(=O)Cc2ccccc2)c(Cl)c1=O | nt | -2.07
O=C(Nc1ccc(N2CCOCC2)c(Cl)c1)c1sc2ccccc2c1Cl | 0.73 | 1.33
O=c1[nH]c(C2CC2)nc2c1CSCC2 | nt | -0.83
O=C(CSc1ncc(S(=O)(=O)c2ccccc2)c(=O)[nH]1)Nc1ccccc1F | 2.3 | -1.8
CCc1c(C)nc2c(-c3ccccc3)c[nH]n2c1=O | 1.51 | -0.71
CC(=O)c1ccc(N2C(=O)C(C(C)C)NC2=S)cc1 (stereo not drawn) | nt | -1.4
Nc1c(C(=O)Nc2cccc(F)c2)sc2nc(-c3ccncc3)ccc12 | -1.3 | -0.15
CC(C)c1nc2sc3c(N4CCOCC4)ncnc3c2c2c1COC(C)(C)C2 | 2.89 | -0.67
Cc1[nH]c(C)c(S(=O)(=O)NCc2ccco2)c1C(=O)N1CCCCC1 | 0.47 | nt
CN1CCCc2cc(C(CNC(=O)C(=O)NCc3ccc4c(c3)OCO4)N3CCOCC3)ccc21 (stereo not drawn) | 1.96 | nt
